BJeLR viability – BJeLR cell viability loss, primary screen, luminescence, CellTiterGlo ATP; BJeLR fibroblasts viability, 48 h; HRASV12, hTERT and SV40 LT/ST transformed; viability loss activity score, % (no concentration beside the values); actives 0.64% (n = 30,000); in the data active = viability loss activity score above about 50%; about a fifth of its hits are not listed in these tables;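 also: higher score means fewer live cells and less ATP luminescence; stock transfer was 50 or 100 nL into about 30 µL; 0% = vehicle wells and 100% = a reference killing control; one replicate is shown; the record names a cut of 85%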
A1 inh – inducers of caspase activity in MEF A1-2A-BIM cells, primary screen, A1 inhibitor project, cell-based, CaspaseGlo luminescence; caspase-Glo luminescence, 3 h; percent of clofoctol signal, DMSO as zero; caspase activation, % (concentration not given with the values); actives 0.51% (n = 21,000); AID 2241, 2010;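 active = most replicate scores above 10, or exactly half above 10 with mean activity above 10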;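 also: effector caspase 3 and 7 activity cleaving a DEVD luciferin substrate; 50 nL library stock added to about 30 µL; numbers are from one replicate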
An asterisk follows results filed as active; / = no result given. An excerpt; the hit share may differ from the screen's.

Molecule | A1 inh | BJeLR viability
Cc1ccc(S(=O)(=O)Nc2ccc3c(c2)C(=O)N([C@H](C)CO)C[C@@H](C)[C@H](CN(C)S(=O)(=O)c2cn(C)cn2)O3)cc1 | 0.0 | -2.4
C[C@@H]1CN([C@@H](C)CO)C(=O)c2cccc(NC(=O)Nc3ccccc3)c2O[C@H]1CN(C)Cc1ccncc1 | / | -4.7
COc1ccc(N2CCC(CNS(=O)(=O)c3cccc(C(F)(F)F)c3)C2)cc1 (stereo unspecified) | -0.4 | 2.3
c1cncc(-c2nc3ccc4ccccc4c3c3c2CCCC3)c1 | -0.5 | -0.2
CC1(C)CC[C@]2(C(=O)O[C@@H]3O[C@H](CO)[C@@H](O)[C@H](O)[C@H]3O)CC[C@]3(C)C(=CCC4[C@@]5(C)C[C@@H](O)[C@H](O)[C@](C)(CO)C5CC[C@]43C)C2[C@@H]1O (stereo partly specified) | 0.1 | -6.6
COc1ccc(-c2noc(N(C)CC(=O)Nc3cccc(OC)c3)n2)cc1 | -0.1 | -2.5
Cc1noc(C)c1NC(=O)Nc1cccc2c1O[C@H](CN(C)S(=O)(=O)c1ccccc1)[C@@H](C)CN([C@H](C)CO)C2=O | / | -1.5
Cc1ccc(-n2c3c(cc(C(=O)NC4CCSC4=O)c2=O)C(=O)CCC3)cc1 (stereo unspecified) | 0.8 | 2.6
C[C@@H]1CN([C@H](C)CO)C(=O)c2cccc(NC(=O)C3CC3)c2O[C@H]1CN(C)C(=O)Nc1ccc(C(F)(F)F)cc1 | / | 0.7
Cc1nccc(-c2cccc(NC(=O)Nc3ccccc3)c2)n1 | -0.3 | 6.1
Cc1noc(C)c1NC(=O)N(C)C[C@@H]1Oc2ccc(NC(=O)Nc3cccc4ccccc34)cc2C(=O)N([C@H](C)CO)C[C@H]1C | -0.1 | -0.4
COc1ccc(CN(C)C[C@H]2Oc3c(NS(C)(=O)=O)cccc3C(=O)N([C@H](C)CO)C[C@H]2C)cc1 | / | 4.1
C[C@@H]1CN([C@@H](C)CO)C(=O)c2cc(NS(=O)(=O)c3ccccc3)ccc2O[C@@H]1CN(C)Cc1ccc(-c2ccccc2)cc1 | 0.2 | -0.7
C=CCNC(=O)CN1N=C(c2ccccc2)CCC1=O | -0.1 | 2.2
O=C(C1=CCN(S(=O)(=O)c2ccccc2)CC1)N1CCCCC1 | 0.4 | 1.1
Cc1ccc(-c2c(C(=O)NCCc3cccc(C)c3)oc(=O)c3ccccc23)cc1 | / | 1.1
COc1ccc2c(c1)c(CC(=O)N1CCOCC1)c(C)n2C(=O)c1ccc(Cl)cc1 | -0.2 | -2.4
CC(C)(O)C1Oc2cc3occ(-c4ccc(O)cc4)c(=O)c3c(O)c2C1O (stereo unspecified) | -1.9 | -1.8
C[C@H]1CN([C@@H](C)CO)C(=O)c2cc(NC(=O)CCN3CCOCC3)ccc2O[C@H]1CN(C)Cc1ccc(C(=O)Nc2ccccc2N)cc1 | / | 8.3
O=C(Cn1c(=O)c2cccn2c2ccccc21)N1CCCCC1 | -0.4 | 0.7
C[C@H](CO)N1C[C@H](C)[C@@H](CN(C)Cc2ccccc2)Oc2ccc(NC(=O)Nc3ccc(C(F)(F)F)cc3)cc2C1=O | 1.1 | -1.2
C[C@H](CO)N1C[C@H](C)[C@H](CN(C)Cc2ccc(C(=O)O)cc2)Oc2ccc(N(C)C)cc2C1=O | -1.3 | -3.6
COc1ccc(C2C3C(=O)N(C(C)C)C(=O)C3ON2c2ccc(Cl)cc2)cc1 (stereo unspecified) | / | 8.8
CSc1oc(-c2ccccc2)nc1S(=O)(=O)c1ccccc1 | -0.9 | 1.3
C[C@H](CO)N1C[C@H](C)[C@H](CN(C)C(=O)Nc2ccc(C(F)(F)F)cc2)Oc2c(NC(=O)Nc3ccc4c(c3)OCO4)cccc2C1=O | / | 2.7
COC(=O)c1sc(S(=O)(=O)N2CCN(c3ccccc3OC)CC2)c(C(=O)OC)c1C | -0.5 | -0.3
O=C(Cn1cnc2c(nnn2-c2cccc(Cl)c2)c1=O)OCc1ccccc1 | -0.5 | 0.4
CC(C)NC(=O)c1ccc2c(Cl)c3c(nc2c1)CCCC3 | / | -1.6
C[C@@H]1CN([C@@H](C)CO)C(=O)c2cc(NS(=O)(=O)c3ccc(Cl)cc3)ccc2O[C@H]1CN(C)C | -0.5 | 1.0
COC(=O)c1c(F)c(F)c(Oc2ccc(Cl)cc2)c(F)c1N1CCCCC1 | 0.5 | 4.3
Cc1cc(C)nc(N/C(=N/S(=O)(=O)c2ccc(Br)cc2)N2CCC(C)CC2)n1 | -0.2 | -2.1
C[C@H](CO)N1C[C@H](C)[C@H](CN(C)C(=O)Nc2ccc3c(c2)OCO3)Oc2ccc(NC(=O)NC3CCCCC3)cc2C1=O | -0.7 | -2.2
O=c1onc(-c2cccc(Cl)c2)n1-c1ccccc1 | -1.2 | 1.3
Cc1ccc(S(=O)(=O)N(C)C[C@@H]2Oc3c(NC(=O)Nc4ccccc4)cccc3C(=O)N([C@@H](C)CO)C[C@@H]2C)cc1 | / | 3.5
C[C@@H]1CN([C@@H](C)CO)C(=O)c2cccc(NC(=O)c3cnccn3)c2O[C@H]1CN(C)S(=O)(=O)c1cn(C)cn1 | / | -2.6
C[C@H]1CN([C@@H](C)CO)C(=O)c2cccc(NC(=O)c3nc4ccccc4s3)c2O[C@@H]1CN(C)C(=O)Nc1ccc2c(c1)OCO2 | / | -0.4
S=C(NC1CCCCC1)N1CCC(C2C=NC=N2)CC1 (stereo unspecified) | -1.1 | 8.4
CS(=O)(=O)Nc1ccc(C2=NN(S(C)(=O)=O)C(c3ccccc3F)C2)cc1 (stereo unspecified) | / | 0.9
CCOc1ccc2c(=O)c(Oc3ccccc3Br)coc2c1 | 1.3 | 0.5
COc1ccc(N=C2C(=O)N3c4c(cc(C)cc42)C(C)=CC3(C)C)cc1 | / | 1.3

Single values from the list.
Reading for `C[C@H](CO)N1C[C@H](C)[C@H](CN(C)C(=O)Nc2ccc(C(F)(F)F)cc2)Oc2c(NC(=O)Nc3ccc4c(c3)OCO4)cccc2C1=O` under BJeLR viability: 2.7
Reading for `COC(=O)c1c(F)c(F)c(Oc2ccc(Cl)cc2)c(F)c1N1CCCCC1` under A1 inh: 0.5
Reading for `C[C@H](CO)N1C[C@H](C)[C@H](CN(C)Cc2ccc(C(=O)O)cc2)Oc2ccc(N(C)C)cc2C1=O` under A1 inh: -1.3
Reading for `O=C(Cn1cnc2c(nnn2-c2cccc(Cl)c2)c1=O)OCc1ccccc1` under A1 inh: -0.5
Reading for `C[C@H](CO)N1C[C@H](C)[C@@H](CN(C)Cc2ccccc2)Oc2ccc(NC(=O)Nc3ccc(C(F)(F)F)cc3)cc2C1=O` under BJeLR viability: -1.2

Continuation.
Molecule | A1 inh | BJeLR viability
COc1ccc(-c2cc(-c3ccccc3)c(C#N)c(SCS(=O)Cc3ccccc3)n2)cc1 (stereo unspecified) | -0.3 | -2.8
C[C@@H]1CN([C@@H](C)CO)C(=O)c2cccc(NS(=O)(=O)c3cn(C)cn3)c2O[C@H]1CN(C)C | / | -3.9
Cc1noc(C)c1S(=O)(=O)Nc1cccc2c1O[C@H](CN(C)C)[C@H](C)CN([C@@H](C)CO)C2=O | / | 2.3
C[C@H](CO)N1C[C@H](C)[C@@H](CN(C)Cc2ccc3c(c2)OCO3)Oc2c(NS(=O)(=O)c3ccc(F)cc3)cccc2C1=O | / | 17.3
C[C@H](CO)N1C[C@H](C)[C@@H](CN(C)Cc2ccc(Cl)c(Cl)c2)Oc2c(NS(=O)(=O)c3ccc(F)cc3)cccc2C1=O | / | -0.1
CC(C)c1ccc(S(=O)(=O)c2cnc(SCC(=O)Nc3ccccc3)[nH]c2=O)cc1 | / | -4.4
Nc1nnc(SCC(=O)c2ccccc2)s1 | -0.4 | 2.6
Cc1cccc(Cn2c(SCc3ccc(C(=O)N4CCCCC4)cc3)nc3ccncc32)c1 | -0.6 | 8.1
COc1ccc(CNC(=O)Cn2nc(-c3ccccc3)ccc2=O)cc1 | 0.5 | -2.7
CC(c1ccccc1)n1c(SCC(=O)c2csc3ccccc23)n[nH]c1=O (stereo unspecified) | -0.6 | -2.0
C=C1C(=O)O[C@H]2C(=C)[C@@H](CCC(=O)O)[C@@H](C)CC[C@@H]12 | 0.0 | -5.2
C[C@@H]1CN([C@@H](C)CO)C(=O)c2cc(NC(=O)c3ccncc3)ccc2O[C@H]1CN(C)C(=O)Nc1ccc2c(c1)OCO2 | 0.9 | 2.4
CCCCN(Cc1ccco1)C(=O)c1cc2c(s1)-c1ccccc1OC2 | 0.3 | 7.1
CCOC(=O)c1ccc(NC(=O)c2oc3c(c2C)-c2nn(Cc4ccc(C)cc4)cc2CC3)cc1 | 21.8* | 2.9
C[C@H](CO)N1C[C@H](C)[C@H](CN(C)S(=O)(=O)c2ccc(Cl)cc2)Oc2c(NS(=O)(=O)c3ccc(F)cc3)cccc2C1=O | / | -1.4
COc1ccc(NC(=O)N(C)C[C@@H]2Oc3c(NC(=O)C4CCCCC4)cccc3C(=O)N([C@H](C)CO)C[C@@H]2C)cc1 | / | -4.2
Cc1cccc(NC(=O)Cn2cnc3c(oc4ccccc43)c2=O)c1 | -0.3 | -4.9
Cc1noc(C)c1NC(=O)Nc1cccc2c1O[C@H](CN(C)S(=O)(=O)c1ccc(F)cc1)[C@@H](C)CN([C@H](C)CO)C2=O | / | 2.1
CCOc1ccc2ccccc2c1C=C1C(=O)N(C)C(=S)N(C)C1=O | 0.0 | 4.6
O=C(c1ccccc1F)n1c2c(c3ccccc31)CCCC2 | / | 8.7
O=C(O)CC1(CC(=O)Nc2ccc(Cl)cc2)CCCC1 | / | -1.0
C[C@@H]1CN([C@@H](C)CO)C(=O)c2cc(N(C)C)ccc2O[C@H]1CN(C)Cc1ccncc1 | -0.5 | -5.4
C[C@@H]1CN([C@@H](C)CO)C(=O)c2cccc(NS(=O)(=O)c3ccc(Cl)cc3)c2O[C@H]1CN(C)C(=O)Nc1ccc(F)cc1 | / | -1.5
CCc1ccc(NC(=O)NC(C)c2c(-n3cccc3)sc3c2CCCC3)cc1 (stereo unspecified) | 0.0 | -0.8
O=C(Nc1ccccc1)c1scc2c1CCCC2 | -6.8 | 16.7
C[C@H]1CN([C@@H](C)CO)C(=O)c2cccc(NS(C)(=O)=O)c2O[C@@H]1CN(C)C(=O)Nc1ccccc1 | / | 1.7
CC(C)c1ccc2c(c1)c1c3c(cncn32)CCC1 | 1.4 | 0.1
COc1ccc(S(=O)(=O)Nc2ccc3c(c2)C(=O)N([C@H](C)CO)C[C@H](C)[C@H](CN(C)S(=O)(=O)c2ccc(OC)cc2)O3)cc1 | 0.3 | 3.0
COC(=O)c1ccc(NC(=O)COc2cccc3ccccc23)cc1 | -0.2 | 4.9
C[C@H]1CN([C@@H](C)CO)C(=O)c2cc(NC(=O)C3CC3)ccc2O[C@@H]1CN(C)CC1CCCCC1 | -0.4 | -4.6
C[C@H]1CN([C@@H](C)CO)C(=O)c2cc(NS(=O)(=O)c3cn(C)cn3)ccc2O[C@@H]1CN(C)C | 0.6 | -2.1
Cc1nnsc1-c1onc(C)c1C(N)=O | 1.0 | -2.4
Cc1ccc(-c2nc(CS(=O)(=O)CC(=O)NCC3CCCO3)c(C)o2)cc1 (stereo unspecified) | / | 1.2
Cc1ccc(S(=O)(=O)Nc2cccc3c2O[C@@H](CN(C)S(=O)(=O)c2ccc(F)cc2)[C@@H](C)CN([C@H](C)CO)C3=O)cc1 | / | 0.9
O=C(CN1C(=O)c2ccccc2C1=O)Nc1ccc(F)cc1 | 0.3 | -2.9
O=C(Nc1nc2nc(-c3ccccc3)cc(-c3ccccc3)n2n1)c1ccccc1 | 2.1 | -2.3
CN1C(=O)C(C)(C)c2cc(S(=O)(=O)NCCN3CCN(c4ccccc4F)CC3)ccc21 | -0.5 | -2.1
C[C@@H]1CN([C@@H](C)CO)C(=O)c2cccc(NS(C)(=O)=O)c2O[C@@H]1CN(C)C(=O)Nc1ccc(C(F)(F)F)cc1 | / | -6.7
O=C(CSc1ccc(Cl)cc1)N1CCc2ccccc21 | -1.9 | 8.9
Cc1onc(-c2c(Cl)cccc2Cl)c1N(C)C(=O)N1CCCCC1 | 1.4 | 1.1

Among those listed so far, these have bromine:
Molecule | A1 inh | BJeLR viability
Cc1cc(C)nc(N/C(=N/S(=O)(=O)c2ccc(Br)cc2)N2CCC(C)CC2)n1 | -0.2 | -2.1
CCOc1ccc2c(=O)c(Oc3ccccc3Br)coc2c1 | 1.3 | 0.5

The listing continues.
Molecule | A1 inh | BJeLR viability
CCOC(=O)C1CCC(CN(Cc2ccccc2)S(=O)(=O)c2ccc(F)c(C)c2)CC1 (stereo unspecified) | 0.5 | -14.9
Cc1ccc2nc(C)c3c(c2c1)N(c1ccccc1)CC3 | -0.6 | 6.3
CC(C)Oc1ccc2c(=O)cc(-c3ccccc3)oc2c1 | -5.7 | 6.0
CCn1cc(C(=O)Nc2ccc(OC)cc2)c(=O)c2ccc(C)nc21 | -0.1 | 0.8
CCCCN(C)C(=O)c1noc2c1COc1ccccc1-2 | -6.0 | -0.1
COc1ccc(S(=O)(=O)Nc2ccc3c(c2)C(=O)N([C@H](C)CO)C[C@@H](C)[C@H](CN(C)C(=O)Nc2ccc(F)cc2)O3)cc1 | 0.1 | -8.4
Cc1ccc(S(=O)(=O)Nc2ccc3c(c2)C(=O)N([C@H](C)CO)C[C@@H](C)[C@H](CN(C)C(=O)Nc2ccc(C(F)(F)F)cc2)O3)cc1 | 1.9 | 1.8

Bioassay records deposited in PubChem BioAssay by Broad Institute.
